Screening results deposited in PubChem BioAssay by National Center for Advancing Translational Sciences (NCATS).
CtBP-E1A inh: inhibitors of CtBP/E1A interaction | AlphaScreen GST-E1A/His-CtBP binding, 1536-well; active compounds read low; control for the full effect not named in the record | activity change, % (test concentration not listed) | 340,000 tested, 0.49% active; in the data active means activity change below about -65%; inconclusive means about -30% to -65%; inactive means above about -30%; further: on the % scale 0 is the no-effect control and ±100 the full control effect
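AlphaScreen with 125 nM GST-E1A and 125 nM His-CtBP (5X stocks) in Tris pH 8.0, 300 mM NaCl, BSA, Tween 20, TCEP. Compounds preincubated 2 h at 37 deg C, then glutathione donor/nickel acceptor beads added for 1 h at 37 deg C in dark.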
TRPML1 ag: agonists of human TRPML1 channel | Q9GZU1 | TRPML1-expressing cells, Ca2+ dye fluorescence, FDSS; host cell line not named in the record; reference of the full effect not given here | activation, % (no concentration beside the values) | 410,000 tested, 0.12% active | AID 624414; in the data active = activation above about 50%; inconclusive = about 30% to 50%; inactive = below about 30%; further: 0% is about no effect; the text of the record puts the active cut at 80%
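Tet-induced TRPML1-DL cells, 1,500 per well, cultured overnight, were loaded with a no-wash Ca2+ dye for 45–90 min. Calcium fluorescence was recorded on the FDSS for 110 s after compound addition, before the EC80 agonist (4 uM 54-4) was added.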
Six1-Eya2 blk: inhibitors of human Six1/Eya2 interaction; activity change, % (test concentration not listed); Q15475+O00167; AlphaScreen GST-Six1/His-Eya2 binding, biochemical; active compounds read low; control for the full effect not named in the record; 360,000 tested, 0.56% active; in the data active = activity change below about -65%; inconclusive = about -30% to -65%; inactive = above about -30%; further: on the % scale 0 is the no-effect control and ±100 the full control effect
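AlphaScreen luminescence read after one hour at 37 °C in darkness. Pin-transferred compounds met GST-Six1 and His-Eya2 protein (5X stock 250 nM/500 nM) plus glutathione donor and Ni-chelate acceptor beads (5X, 50 ug/mL).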
D2 PAM: human D2 receptor positive allosteric modulation | P14416 | 360,000 tested, 0.23% active | potentiation, % (test concentration not listed) | DiscoveRx D2 beta-arrestin cells, luminescence, 90 min; 100% = 57 uM dopamine signal; active = potentiation of 50% or more; inconclusive = 30% to 50%; inactive = 30% or less;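 further: compound concentration not given in the record; tested on top of an EC20 dose of dopamine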
Target sequence (P14416 whole entry, looked up): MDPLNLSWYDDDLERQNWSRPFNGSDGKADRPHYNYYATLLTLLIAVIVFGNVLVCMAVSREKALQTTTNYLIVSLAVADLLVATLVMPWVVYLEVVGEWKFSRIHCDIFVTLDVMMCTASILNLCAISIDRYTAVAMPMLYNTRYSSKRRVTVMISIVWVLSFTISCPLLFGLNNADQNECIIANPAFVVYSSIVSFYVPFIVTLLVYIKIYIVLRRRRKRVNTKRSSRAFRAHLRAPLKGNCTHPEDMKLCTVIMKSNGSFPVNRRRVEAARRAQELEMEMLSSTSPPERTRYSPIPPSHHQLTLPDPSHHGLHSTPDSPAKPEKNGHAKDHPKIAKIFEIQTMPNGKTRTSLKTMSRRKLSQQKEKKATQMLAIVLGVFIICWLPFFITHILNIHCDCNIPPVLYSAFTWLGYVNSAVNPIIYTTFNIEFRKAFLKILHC
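D2 cells co-treated with compound plus 50 nM dopamine (EC20) for 90 min at 37 deg C to detect potentiation. Beta-arrestin recruitment was read as enzyme-fragment luminescence after 1 h at ambient temperature. Full response was set by 57 uM dopamine.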
TRPML1 blocker: human mucolipin-1 channel inhibition; TRPML1-inducible cells, Ca2+ dye fluorescence, FDSS; active compounds read low; inhibition of EC80 agonist-evoked calcium signal; activity change, negative = inhibition, % (test concentration not listed); 390,000 tested, 0.02% active; in the data active means activity change below about -50%; inconclusive means about -30% to -50%; inactive means above about -30%;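 further: stimulus is agonist 54-4 at its EC80 concentration; on the % scale 0 is the no-effect control and ±100 the full control effect; compound concentration not given in the record; the text of the record puts the active cut at -80%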
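Tet-induced TRPML1-DL cells loaded with Ca8 no-wash calcium dye were read kinetically on FDSS. Compound addition was followed by EC80 agonist 54-4 (4 uM final); inhibition was read over 110 s.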
TRPV1 potentiator: potentiators of human vanilloid receptor 1 (TRPV1); TRPV1-expressing cells, Fluo-8 calcium influx, capsaicin EC20 potentiation; host cell line not named in the record; control for the full effect not named in the record; 320,000 tested, 0.02% active; potentiation, % at 8.33 µM; Q8NER1; active means potentiation above 80%; inconclusive means 30% to 80%; inactive means below 30%; further: 0% is about no effect
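Fluo-8 calcium influx in TRPV1-expressing cells, kinetic read (ex 480/em 520 nm). Compound added and read 3 min for agonist activity, followed by capsaicin at EC20 final and 2 min further read for enhancement.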
* marks the source's active call; other numbers are inactive results; ? = inconclusive; nt = no result given; & = joins results of further samples.

SMILES	Six1-Eya2 blk	TRPML1 ag	D2 PAM	CtBP-E1A inh	TRPV1 potentiator	TRPML1 blocker
COc1ccc(/C(O)=C2\C(=O)C(=O)N(CCN(C)C)C2c2cccc(OC)c2OC)cc1 (configuration not stated)	6	-1.2	-14	14	0	22
Cn1c(=O)cc(SCC(=O)N2CCN(Cc3ccc4c(c3)OCO4)CC2)c2ccccc21	0	0.8	3	-1	-28	13
CC(CCc1ccccn1)C(=O)c1ccccc1 (configuration not stated)	5	-0.3	-6	2	nt	5
COc1ccccc1C(=O)n1nc(-c2cccnc2)nc1NCc1ccccc1	-4	1.8&1.2	-5	1	-12	-20&13
CCOc1ccc(NC(=O)CSc2nc3ccccc3c(=O)n2CCCC(=O)NCCCN2CCCC2=O)cc1	1	-0.6	4	-2	?	0
CCC(C)(C)NC(=O)CN(Cc1cccs1)C(=O)CNS(=O)(=O)c1ccc(C)cc1	4	-0.5	-9	-3	6	?
O=C(NNS(=O)(=O)c1ccc(F)cc1)c1ccccc1O	2	-0.5	4	9	-20	1
O=C(NCc1cccnc1)/C(=C/c1ccc([N+](=O)[O-])cc1)NC(=O)c1ccccc1	-1	-0.8	-7	3	nt	2
CN(C)S(=O)(=O)Nc1cc(F)cc(F)c1	-10	0.9	-5	-7	-13	4
Cc1cc(C)n(CCC(=O)N2CCN(S(=O)(=O)c3ccccc3)CC2)n1	1	-0.8	-8	-14	-9	15
CCn1c(=O)c2sccc2n(CC(=O)NCCC2=CCCCC2)c1=O	-14	0.1	-5	-7	-1	7
O=C(O)CC1(CC(=O)NCc2cccc(Cl)c2)CCCCC1	6	0.5	-9	11	4	-6
O=C(Cc1cccc2ccccc12)Nc1nc(-c2cccc([N+](=O)[O-])c2)cs1	3	1.0	-14	3	-22	-7
CCCCN(C(=O)Nc1ccccc1)C1CCS(=O)(=O)C1 (configuration not stated)	11	-0.1	-3	1	-5	-12
CCn1cc(C(=O)O)c(=O)c2cc(F)c(N3CCN(S(=O)(=O)c4ccc(NC(=O)OC)cc4)CC3)cc21	6	0.2	-2	1	6	-10
CNC(=O)c1[nH]cnc1C(=O)Nc1ccccc1	-11	-0.7	-2	-16	4	2
O=C(CN1CCN(C(=O)c2ccco2)CC1)Nc1ccc(Br)cc1	-1	-0.5	-7	-18	17	-7
CC(C)(C)OC(=O)CNC(=O)c1nc[nH]c1C(=O)N1CCNCC1	-14	-0.7	-8	-10	28	5
O=C(NCCCN1CCOCC1)c1ccc(S(=O)(=O)N2CCOCC2)cc1	4	0.7	5	7	-3	-8
COc1ccc(/C=C(/NC(=O)c2cccs2)C(=O)NC(C)(C)C)cc1OC	-17	0.4	-10	-2	28	-2
CCC1=NC(c2ccccc2Cl)N(O)C1(C)C (configuration not stated)	3	1.1	-13	14	20	0
CN(C)c1nc2c(c(=O)[nH]c(=O)n2C)n1CCCc1ccccc1	2	0.1	-19	2	0	10
O=C(COC(=O)Cc1n[nH]c(=O)c2ccccc12)Nc1ccc(Cl)cc1F	-1	-0.4	-15	nt	0	20
O=C(NC1CCCC1)C(c1ccc(F)cc1)N(Cc1ccc(F)cc1)C(=O)c1ccn[nH]1 (configuration not stated)	1	1.1	-6	0	-23	15
O=C1CC(/C=C/c2ccc(Cl)cc2)=Nc2ccccc2N1	-13	-0.4	-23	-7	-8	0
O=C(N/N=C1\C2CN3CCN(C2)CC1(c1ccccc1)C3)Nc1ccccc1	0	0.1	2	2	16	-14
Cc1ccc(N(C(C)C(=O)Nc2cc(Cl)ccc2Oc2ccccc2)S(C)(=O)=O)cc1 (configuration not stated)	-3	2.5	1	8	-1	67
COc1cccc(CN2CCN(CCCc3ccccc3)C(CCO)C2)c1OC (configuration not stated)	3	-0.2	-21	-4	24	-8
CC(C)C(=O)Nc1cccc(C(=O)NCCc2ccc(S(N)(=O)=O)cc2)c1	-1	-0.1	-10	0	4	8
O=C(O)c1ccc(F)c(S(=O)(=O)Nc2ccccc2Cl)c1	10	0.1	0	5	-3	-4
O=C(N/N=C/c1cc2ccccc2[nH]1)c1ccccc1Cl	-1	0.3	-5	1	-4	-13
CCCCOn1c(C)c(C(C)=O)c2c3no[n+]([O-])c3ccc21	-3	-0.1	3	-5	-11	-13
CC(=O)Nc1cc(S(=O)(=O)Nc2ccccc2)c(C)cc1C	3	-0.1	-20	-2	7	-16
O=C(NCCCN1CCOCC1)c1cc(-c2ccc(Cl)cc2)on1	3	-0.3	-12	9	-5	-19
COc1ccc(NC(C)=O)cc1NC(C)C(=O)Nc1ccc(F)cc1 (configuration not stated)	-2	0.0	-2	-4	8	-16
COc1cc2ccc(=O)oc2cc1O	24	1.4	1	3	-17	3
COc1cccc(CCNc2ccc(N3C(=O)CC(C)C3=O)cc2[N+](=O)[O-])c1 (configuration not stated)	7	-0.8	-8	-25	4	0
COc1ccc(-c2ccc(SCC(=O)NC3CCCC3)nn2)cc1OC	?	-0.2	-12	7	11	1
C/C(O)=C/c1nc2ccccc2[nH]c1=O	4	0.0	-19	-14	-5	-8
CC(=O)Nc1cc(NC(C)=O)cc(-c2nc3ccccc3[nH]2)c1	-2	0.3&-0.4	1	0	12	-3&-6
CCOC(=O)CC1ON(C)C(=O)N1c1ccc(Cl)cc1Cl (configuration not stated)	10	0.2	-8	17	-26	0
COCCn1c(SCC#N)nnc1-c1ccc([N+](=O)[O-])cc1	-6	0.9	-1	11	-35	6
O=C(NNC(=O)C1CCN(S(=O)(=O)c2ccccc2C(F)(F)F)CC1)c1ccccc1O	-6	-0.2	6	-1	5	9
O=C1/C(=C\c2cccc(O)c2)SC(=S)N1Cc1ccccc1	1	nt	2	nt	-21	nt
OC(CNc1ncnc2sccc12)c1ccccc1 (configuration not stated)	-3	0.7	-3	10	-7	-10
Cc1ccc(-c2nnc(-c3ccc(Br)cc3)o2)o1	4	-0.4	-8	6	-10	-2
Cc1nc(-c2cccc(S(=O)(=O)N3CCOCC3)c2)cs1	-2	0.2	-3	2	-8	5
O=C(NCc1ccco1)C1CCCN(c2nnc(-n3cccc3)s2)C1 (configuration not stated)	-1	0.7	-3	-3	11	-23
O=C(COC(=O)c1ccc(Cl)c(S(=O)(=O)N2CCCCC2)c1)NCC1CCCCC1	6	2.6	-2	10	-7	37
Cc1ccc(C(=O)Nc2cccc(C(=O)N3CCOCC3)c2)cc1	3	-0.3	-21	-2	-1	38
CCn1c(O)c(N=NC(=O)CNC(=O)c2cccnc2)c2ccccc21	-11	-0.3	-12	-10	nt	23
CCCCOC(=O)C1=C(C)NC(=O)NC1c1ccc([N+](=O)[O-])s1 (configuration not stated)	-20	2.2	58*	-7	-8	-6
COc1ccc(CC(=O)NNC(=O)COc2ccc(F)cc2)cc1S(=O)(=O)N1CCOCC1	-8	0.5	-13	0	nt	8
O=C(CCC(=O)Nc1cccc(C(F)(F)F)c1)NCC1CCCO1 (configuration not stated)	7	0.3	-7	6	4	6
CC(C)CNC(=O)CSc1nnc(-c2ccccn2)n1Cc1ccccc1	-1	-0.3	-6	0	1	1
CN(Cc1nc2ccccc2[nH]1)C(=O)C1CCC(=O)N(C2CCCC2)C1 (configuration not stated)	1	1.6	-14	10	0	1
CCCc1nc(-c2cc3cc(C)ccc3[nH]c2=O)no1	2	nt	-11	-23	25	nt
Cc1csc2nc(CNC(=O)c3cccc(C(F)(F)F)c3)cn12	7	1.1	-22	8	4	41
Cc1cccc(C)c1OCc1cc(C(=O)NCc2cn(C)nc2C)no1	-2	0.9	6	1	-5	4
O=C(Cn1cc(C(=O)c2ccco2)c2ccccc21)NCc1ccco1	-2	2.8	-8	-7	-9	-10
O=C(OCC(=O)N1CCN(c2ccc(F)cc2)CC1)c1cnc2ccccc2n1	0	-0.6	18	nt	nt	1
NC(=O)c1ccc(NC(=O)c2ccc(COc3ccc(F)cc3)o2)cc1	1	0.2	-8	17	-16	10

Among those listed so far, 5 have an aryl thioether with sulfur outside any ring.
SMILES	Six1-Eya2 blk	TRPML1 ag	D2 PAM	CtBP-E1A inh	TRPV1 potentiator	TRPML1 blocker
Cn1c(=O)cc(SCC(=O)N2CCN(Cc3ccc4c(c3)OCO4)CC2)c2ccccc21	0	0.8	3	-1	-28	13
CCOc1ccc(NC(=O)CSc2nc3ccccc3c(=O)n2CCCC(=O)NCCCN2CCCC2=O)cc1	1	-0.6	4	-2	?	0
COc1ccc(-c2ccc(SCC(=O)NC3CCCC3)nn2)cc1OC	?	-0.2	-12	7	11	1
COCCn1c(SCC#N)nnc1-c1ccc([N+](=O)[O-])cc1	-6	0.9	-1	11	-35	6
CC(C)CNC(=O)CSc1nnc(-c2ccccn2)n1Cc1ccccc1	-1	-0.3	-6	0	1	1

Records listed above shown as hits in D2 PAM:
SMILES,Six1-Eya2 blk,D2 PAM,CtBP-E1A inh,TRPML1 blocker
CCCCOC(=O)C1=C(C)NC(=O)NC1c1ccc([N+](=O)[O-])s1 (configuration not stated),-20,58*,-7,-6
